VACV Venus inh – vaccinia inhibition (Venus reporter); Vaccinia virus Venus reporter expression, fluorescence; Potency, µM (highest dose often 36.5 µM), without a hit: at the highest dose activity change, negative = inhibition, actives largely listed as inhibitors; 330,000 compounds, 0.46% hits; active means well fitted inhibition curve with a large enough effect; inconclusive means small, poorly fitted or top-dose-only effect; inactive means no such curve, though single readings can be large or run the other way; tested in A549 cells; also: nearly all actives have a fitted effect of over 30% in size; inactives centre near -10
VACV mCherry inh – inhibitors of vaccinia virus infection (mCherry reporter signal); Vaccinia virus mCherry reporter infection, fluorescence; about a quarter of the inactives have no number; Potency, µM (series often up to 36.5 µM), inactives show at the highest dose activity change, negative = inhibition, usual class: inhibitors; 310,000 compounds, 0.63% hits; AID 720579; active = well fitted inhibition curve with a large enough effect; inconclusive = small, poorly fitted or top-dose-only effect; inactive = no such curve, though single readings can be large or run the other way; tested in A549 cells; also: nearly all actives have a fitted effect of over 35% in size; inactives centre near -10
Active calls of the source: *; i = inactive; ? = inconclusive; . = not tested or not shown; & = joins results of further samples; [ ] = another dose, or the depositor's remark. % is scaled to controls: 0 for no effect and ±100 for the full control effect; potency is read from the fitted curve at half-maximal effect.

Sequence of screens: VACV Venus inh, VACV mCherry inh
CCC1(C)Cc2c(sc3nc(SC)n(-c4ccc(C)cc4)c(=O)c23)CO1 (configuration not stated)
 : 2%, -6%
Cc1cccc(CNC(=O)CN2C(=O)CCn3nc(-c4cn(C)c5ccccc45)cc32)c1
 : -4%, -14%
CC1=C(C(=O)N(C)C)CC(CC(=O)NCc2ccco2)C(=O)N1Cc1ccccc1 (configuration not stated)
 : -19%, i
Cc1csc2c(=O)sc(NC(=O)c3cccs3)nc12
 : 4%[7.34 µM], i[7.34 µM]
CN(C)c1cc[n+](CC(=O)N2c3ccccc3Sc3ccccc32)cc1
 : -9%, i
Cc1ccc(C)c(-c2nnc(NC(=O)c3ccco3)o2)c1
 : ?, -10%
CCc1ccc(Nc2n[n+](-c3ccccc3)c(-c3ccc(C(=O)O)cc3)s2)cc1
 : 4%, -6%
O=C(NCC(c1ccco1)N1CCN(c2ccccc2)CC1)c1ccc2c(c1)OCO2 (configuration not stated)
 : -13%, -18%
Cc1cc(CC(C)C)n(-c2nc3ccccc3c(=O)n2OCC(N)=O)n1
 : -13%, -23%
COc1ccc(OC)c(-c2noc(N3CCN(c4cc(C)ccc4C)CC3)n2)c1
 : -13%, -8%

Sequence of screens: VACV Venus inh, VACV mCherry inh
Cc1cc(CNC(=O)c2cccc(OC3CCN(S(=O)(=O)N(C)C)CC3)c2)on1
 : -12%, 0%
COC(=O)c1ccc(OCCN2C3=NCCN3c3ccccc32)cc1
 : -20%, -29%
O=C(N/N=C\c1ccc(-c2ccccc2[N+](=O)[O-])o1)C1COc2cc3ccccc3cc2O1 (configuration not stated)
 : ?, .
Cc1ccc(C(=O)OCC(=O)NC(=O)c2cccn2C)cc1[N+](=O)[O-]
 : 8%, -8%
Cc1ccc(C)c(S(=O)(=O)Nc2ccc(C(=O)NCCCN3CCOCC3)cc2)c1
 : -6%, -23%
CCOC(=O)CSc1ncnc2c1cnn2-c1ccc(C)cc1C
 : -4%, 2%
Cc1c(Br)c([N+](=O)[O-])nn1CC(=O)NCc1ccccn1
 : 0%, -15%
Cc1nc2ccc(N)cc2c(=O)n1Cc1ccc(Cl)cc1
 : -12%, -10%
CCOC(=O)c1c(NC(=O)C2c3ccccc3Oc3ccccc32)sc(C(N)=O)c1C
 : -11%, .
Clc1ccc(C2=CSC3=NCCN23)c(Cl)c1
 : 1%, -15%

Sequence of screens: VACV Venus inh, VACV mCherry inh
Cc1c(N=NC2=C(O)CC(C)(C)CC2=O)c(=O)n(-c2ccccc2)n1C
 : -17%, -11%
C=Cn1ccnc1CC(O)c1ccc(OC)cc1 (configuration not stated)
 : -7%, i
Cc1cc(=O)n2nc(N3CCC(C(=O)N4CCN(Cc5ccccc5)CC4)CC3)sc2n1
 : -17%, -12%[1.46 µM]
COc1ccc(-c2csc(NC(=O)CCNC(=O)c3ccco3)n2)cc1
 : -2%, i
Cn1nc(C(C)(C)C)cc1C(=O)N1CCCCC1c1cc(C(=O)Nc2ccc3c(c2)OCO3)no1 (configuration not stated)
 : -19%, 14%
COc1ccc(C(=O)NNC(=O)C2CC=CCC2)cc1 (configuration not stated)
 : -18%, i
CC1CCCCC1NC(=O)c1cccc(N2C(=O)C3C4C=CC(C4)C3C2=O)c1 (configuration not stated)
 : -9%, -24%
CCOc1cc(-c2ccccc2)nc(N)n1
 : -21%, -26%
CCCCCCSc1cccc(-c2nc3ccccn3c2NCc2ccccc2)c1
 : -9%&-7%, -8%
O=C(COc1ccc([N+](=O)[O-])cc1)NCc1cccnc1
 : 1%, -8%

Sequence of screens: VACV Venus inh, VACV mCherry inh
Cc1cc(S(=O)(=O)N(C)CCc2ccccc2)ccc1-n1cnnn1
 : 9%, .
CN1CCN(c2ccc(NC(=O)Oc3ccccc3)cc2)CC1
 : -1%, -8%
Cc1ccc(SCCNC(=O)/C=C/c2ccccc2Cl)cc1
 : -2%, i
Cn1c(SCC(=O)N2CCOCC2)nnc1-c1ccc(NC(=O)c2ccccc2F)cc1
 : -7%, i
Cc1ccc(S(=O)(=O)c2nnn3c2nc(NCc2ccccc2)c2sccc23)cc1
 : ?, ?
CCn1cc(S(=O)(=O)Nc2ccc(Cl)cc2F)cn1
 : 1%, i
CC(=O)NC(=S)Nc1ccc(N2CCOCC2)c(S(=O)(=O)Nc2cc(Cl)ccc2Cl)c1
 : -5%, i
COc1ccc(NC(=O)Cn2c(CCC(=O)O)ccc2-c2ccccc2)cc1Cl
 : -9%, -6%
COC(C(=O)NCc1ccc(C)cc1)c1ccccc1 (configuration not stated)
 : -19%, i
COC(=O)c1cc(C)sc1NC(=O)CC1Nc2ccccc2NC1=O (configuration not stated)
 : 5%, 0%

Next part (six carried over from the part before).
Sequence of screens: VACV Venus inh, VACV mCherry inh
Cc1ccc(S(=O)(=O)c2nnn3c2nc(NCc2ccccc2)c2sccc23)cc1
 : ?, ?
CCn1cc(S(=O)(=O)Nc2ccc(Cl)cc2F)cn1
 : 1%, i
CC(=O)NC(=S)Nc1ccc(N2CCOCC2)c(S(=O)(=O)Nc2cc(Cl)ccc2Cl)c1
 : -5%, i
COc1ccc(NC(=O)Cn2c(CCC(=O)O)ccc2-c2ccccc2)cc1Cl
 : -9%, -6%
COC(C(=O)NCc1ccc(C)cc1)c1ccccc1 (configuration not stated)
 : -19%, i
COC(=O)c1cc(C)sc1NC(=O)CC1Nc2ccccc2NC1=O (configuration not stated)
 : 5%, 0%
Cc1cccc(N2CCN(C(=O)c3ccc4nc[nH]c4c3)CC2)c1C
 : -12%, -26%
CCOc1c2ccc(C(=O)NCc3ccc4c(c3)OCO4)cc2nn1CC
 : -4%, i
COC(=O)[C@@]12CCCCN1[C@H](c1ccc(-c3ccc(Cl)c(Cl)c3)cc1)[C@H]1C(=O)N(C)C(=O)[C@H]12
 : ?, ?
CC(SCc1ccccc1)C(=O)Nc1ccccc1Br (configuration not stated)
 : -8%, -16%
O=C(O)CC1c2ccccc2CCN1C(=O)Nc1cc(Cl)ccc1Cl (configuration not stated)
 : -20%, -2%
CC(O)(C#CCN1CCCCC1)c1ccccc1 (configuration not stated)
 : -3%, -14%
COc1cc(OC)cc(-c2c(C#Cc3ccsc3)c3cc(-c4ccc5[nH]ccc5c4)ccc3n2C)c1
 : 0%, i
CNC[C@H]1Oc2c(NS(=O)(=O)c3ccc(OC)cc3)cccc2C(=O)N([C@H](C)CO)C[C@H]1C
 : -8%, -25%
Cc1c(NC(=O)c2ccc(NS(=O)(=O)c3ccccc3)cc2)c(=O)n(-c2ccccc2)n1C
 : -3%, i
Cc1nc2sc3c(c2c(=O)n1NC(=O)CCl)CCCC3
 : ?, ?

Sequence of screens: VACV Venus inh, VACV mCherry inh
CCN(CC(=O)NC(C)(C)C)C(=O)c1ccc(Br)cc1
 : -4%, -6%
CCCNC(=S)N1CCN(c2nc(-c3cccc(OC)c3)cs2)CC1
 : -20%, -12%
O=C(NCc1ccccc1Cl)C1CCCN(S(=O)(=O)c2cnc[nH]2)C1 (configuration not stated)
 : 0%, i
Cn1ccnc1CC(O)(c1ccccc1)c1ccccc1
 : 5%, i
CCCCCCC1CC(=CN(C)C)C(=O)O1 (configuration not stated)
 : -12%, i
Cc1c(Cl)cccc1NC(=S)NC(=O)c1ccccc1
 : 12%, 1%
O=C(O)c1ccc(NS(=O)(=O)c2cc(C(=O)O)ccc2Br)cc1
 : -9%, -11%
CCOC(=O)COc1cc(OCC(=O)OCC)c2c(=O)cc(-c3ccccc3)oc2c1
 : -6%, i
O=C(NC1CC(=O)N(c2ccc(F)cc2)C1)C1CCCC1 (configuration not stated)
 : -2%, -4%
CNS(=O)(=O)c1cc(C(=O)OCC(=O)NC2CCCc3ccccc32)ccc1Cl (configuration not stated)
 : 6%, i

Sequence of screens: VACV Venus inh, VACV mCherry inh
O=C(NC(Cc1ccccc1)C(=O)O)OCC1c2ccccc2-c2ccccc21 (configuration not stated)
 : -11%, i
CCN1CCN(Cc2c(O)ccc3oc(C)c(C(=O)Nc4cccc(Cl)c4C)c23)CC1
 : -14%, -26%
Cc1onc(-c2c(F)cccc2Cl)c1C(=O)Nc1nnc(C2CC2)s1
 : -10%, .
Cc1cccc(Cl)c1NC(=O)N1CCCN(c2ncccc2[N+](=O)[O-])CC1
 : -1%, i
COC(=O)C(O)(c1cn(C)c2ccccc12)C(F)(F)F (configuration not stated)
 : 0%, .
CC(C)NS(=O)(=O)c1ccc(OCC(=O)N2CCN(c3ccccc3)CC2)cc1
 : -12%, i
Cc1ccc(C)c(NC(=O)C(c2ccccc2)N2CCOCC2)c1 (configuration not stated)
 : 8%, -16%
CCOC(=O)CSc1n[nH]c(-c2ccco2)n1
 : -9%, 1%
Cc1ccc(/C=N/NC(=O)CSc2nnc(-c3ccccc3)n2-c2ccc(Cl)cc2)o1
 : -10%, -4%
Cn1nc(C(=O)NCc2ccc(F)cc2)c2c1-c1ccccc1SC2
 : -5%, -8%

Sequence of screens: VACV Venus inh, VACV mCherry inh
CCCN(C(=O)c1cc2c(=O)n(CC)c3ccccc3c2s1)c1ccccc1F
 : -15%, -9%
O=C(CN1C(=O)COc2ccccc21)N1CCN(c2ccccc2F)CC1
 : -15%, -6%
CC(C(=O)Nc1cccnc1)n1cc([N+](=O)[O-])cn1 (configuration not stated)
 : -3%, i
CCN(Cc1nc2cc(Cl)ccc2c(=O)[nH]1)C(=O)c1cc2c(s1)CCCCC2
 : -8%, -16%
BrC(/C=N/N1CCN(Cc2ccccc2)CC1)=C/c1ccccc1
 : -28%, -15%
CCN(CC)S(=O)(=O)c1ccccc1/C=N\O
 : -21%, .
CCCN(CCC)CCCNC(=O)c1sc2nc3n(c(=O)c2c1C)CCC3
 : -6%, -1%
COCCn1c(=O)[nH]c2cc(C(=O)NCC3CCCO3)ccc2c1=O (configuration not stated)
 : -5%, -9%
Cc1ccccc1-c1nc(-n2ccnc2)c2ccccc2n1
 : -12%, -13%
CCOc1ccc(-c2noc(CCCC(=O)NC3CCCCC3)n2)cc1OC
 : -10%, 2%

Reprinted from the part before: three entries, then new ones.
Sequence of screens: VACV Venus inh, VACV mCherry inh
COCCn1c(=O)[nH]c2cc(C(=O)NCC3CCCO3)ccc2c1=O (configuration not stated)
 : -5%, -9%
Cc1ccccc1-c1nc(-n2ccnc2)c2ccccc2n1
 : -12%, -13%
CCOc1ccc(-c2noc(CCCC(=O)NC3CCCCC3)n2)cc1OC
 : -10%, 2%
COc1ccc(CNC(=O)O[C@H]2CN(C(=O)OC(C)C)N(C(=O)OC(C)C)[C@@H]3CN(S(=O)(=O)c4ccc(C)cc4)C[C@]23O)cc1OC
 : -16%, -13%
CC1(C)CC[C@]2(C(=O)O)CC[C@@]3(C)C(=CCC4[C@@]5(C)CCC(O)[C@@](C)(CO)C5CC[C@@]43C)C2C1 (some centres not stated)
 : -4%, -12%
NC(=O)[C@@H]1CCCNc2c(F)cc([N+](=O)[O-])cc2C(=O)N[C@@H](CCC(=O)O)C(=O)N[C@@H](CO)C(=O)N1
 : -2%, i
COc1ccc(NC(=O)C(=O)c2cn(CC(=O)N3CCOCC3)c3ccccc23)cc1OC
 : -3%, -3%
CCn1c(SCC(=O)c2cc(C)ccc2C)nc2cc(S(=O)(=O)N3CCOCC3)ccc21
 : -14%, i
NC(CCc1ccccc1)c1csc(Nc2nncc3ccccc23)n1 (configuration not stated)
 : -18%, 13%
COc1ccc(NC(=O)C2CCCN2S(=O)(=O)c2ccc(Cl)cc2)cc1 (configuration not stated)
 : 0%, -11%
CCCc1cc(=O)oc2cc(C)cc(OCC(=O)N3CCC(C(=O)O)CC3)c12
 : -4%, -1%
Cc1nc2ccccn2c1C(=O)NNC(=S)Nc1ccccc1
 : -6%, ?
O=C(CSc1nnc(CCCOc2ccc(Cl)cc2Cl)o1)Nc1ccc(C(=O)O)cc1
 : 2%, 0%

Sequence of screens: VACV Venus inh, VACV mCherry inh
Cc1cc(C(=O)CN2C(=O)NC(C)(c3ccccc3)C2=O)c(C)n1CC1CCCO1 (configuration not stated)
 : -4%, -10%
CCC(C)CN1C(=O)CSCC1(C)C(=O)NC(C)C (configuration not stated)
 : 9%, -6%
COc1ccc(CNC(=O)c2csc(Cc3ccc(OC)cc3)n2)cc1
 : -29%, .
CC(=O)c1ccc(N2C(=O)CC(N3CCN(S(=O)(=O)c4cc(C)ccc4C)CC3)C2=O)cc1 (configuration not stated)
 : -17%, i
Cc1nn(-c2ccccc2)c2sc(C(=O)Nc3cccc(Cl)c3)cc12
 : -16%, -27%
COc1ccc(NC(=O)C(NC(=O)CNC(C)=O)c2ccc(C)cc2)cc1 (configuration not stated)
 : -11%, -10%
CCOC(=O)c1c(C)n(Cc2ccccc2)c2ccc(O)cc12
 : -9%, -21%
CC(OC(=O)COc1ccc(C#N)cc1)C(=O)c1ccccc1 (configuration not stated)
 : -13%, i
CCCNC(=O)Cn1nc(-c2ccc(C)c(C)c2)c2cnc3ccc(OC)cc3c21
 : -25%, -25%
